Source: PubChem
TRPML1 inh: human mucolipin-1 channel inhibition; Q9GZU1; TRPML1-inducible cells, Ca2+ dye fluorescence, FDSS; active compounds read low; inhibition of EC80 agonist-evoked calcium signal; activity change, negative = inhibition, % (test concentration not listed); 0.02% of 390,000 active; AID 624415; in the data active means activity change below about -50%; inconclusive means about -30% to -50%; inactive means above about -30%;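 note: stimulus is agonist 54-4 at its EC80 concentration; % is set by controls: 0 for no effect and ±100 for the full control effect; compound concentration not given in the record; the text of the record puts the active cut at -80%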
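Tet-induced TRPML1-DL cells loaded with Ca8 no-wash calcium dye were read kinetically on FDSS. Compound addition was followed by EC80 agonist 54-4 (4 uM final); inhibition was read over 110 s.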
Six1-Eya2 inh: inhibitors of human Six1/Eya2 interaction. 0.56% of 360,000 active. AlphaScreen GST-Six1/His-Eya2 binding, biochemical; active compounds read low; control for the full effect not named in the record. activity change, % (no concentration beside the values). Q15475+O00167; in the data active = activity change below about -65%; inconclusive = about -30% to -65%; inactive = above about -30%; note: % is set by controls: 0 for no effect and ±100 for the full control effect
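Compounds are tested against tagged Six1 and Eya2 proteins bridged by glutathione donor and nickel acceptor beads; after a one-hour incubation at 37 °C without light, AlphaScreen emission is recorded.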
CtBP-E1A inh: inhibitors of CtBP/E1A interaction; AlphaScreen GST-E1A/His-CtBP binding, 1536-well; active compounds read low; control for the full effect not named in the record; activity change, % (no concentration beside the values); 0.49% of 340,000 active; AID 651724; in the data active means activity change below about -65%; inconclusive means about -30% to -65%; inactive means above about -30%; note: % is set by controls: 0 for no effect and ±100 for the full control effect
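AlphaScreen with 125 nM GST-E1A and 125 nM His-CtBP (5X stocks) in Tris pH 8.0, 300 mM NaCl, BSA, Tween 20, TCEP. Compounds preincubated 2 h at 37 deg C, then glutathione donor/nickel acceptor beads added for 1 h at 37 deg C in dark.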
TRPV1 PAM: human TRPV1 potentiation. TRPV1-expressing cells, Fluo-8 calcium influx, capsaicin EC20 potentiation; host cell line not named in the record; control for the full effect not named in the record. AID 540277. potentiation, % at 8.33 µM. 0.02% of 320,000 active; active means potentiation above 80%; inconclusive means 30% to 80%; inactive means below 30%; note: 0% is about no effect
Target sequence (Q8NER1 whole entry, looked up): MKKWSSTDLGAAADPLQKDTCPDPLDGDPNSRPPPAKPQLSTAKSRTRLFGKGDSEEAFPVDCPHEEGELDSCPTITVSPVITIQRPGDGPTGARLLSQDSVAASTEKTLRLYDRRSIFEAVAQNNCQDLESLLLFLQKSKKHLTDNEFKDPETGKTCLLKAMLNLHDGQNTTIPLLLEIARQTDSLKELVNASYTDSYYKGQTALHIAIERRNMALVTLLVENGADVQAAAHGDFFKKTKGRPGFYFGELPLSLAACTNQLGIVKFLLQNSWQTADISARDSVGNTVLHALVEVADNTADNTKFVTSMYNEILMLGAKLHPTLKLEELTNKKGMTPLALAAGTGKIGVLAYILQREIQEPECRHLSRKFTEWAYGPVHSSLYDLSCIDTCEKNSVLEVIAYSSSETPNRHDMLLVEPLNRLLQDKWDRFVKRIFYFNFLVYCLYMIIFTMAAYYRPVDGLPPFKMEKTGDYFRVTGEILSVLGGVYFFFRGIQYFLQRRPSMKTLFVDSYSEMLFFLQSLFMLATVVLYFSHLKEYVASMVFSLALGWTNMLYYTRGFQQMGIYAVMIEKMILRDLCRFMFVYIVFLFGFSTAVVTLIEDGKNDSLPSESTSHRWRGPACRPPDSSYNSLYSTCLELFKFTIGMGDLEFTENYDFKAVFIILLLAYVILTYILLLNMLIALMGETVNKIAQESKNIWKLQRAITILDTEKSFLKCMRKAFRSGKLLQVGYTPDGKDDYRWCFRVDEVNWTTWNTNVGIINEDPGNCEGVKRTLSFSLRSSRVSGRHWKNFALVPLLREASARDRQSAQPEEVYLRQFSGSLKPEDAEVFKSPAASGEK
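Fluo-8 calcium influx in TRPV1-expressing cells, kinetic read (ex 480/em 520 nm). Compound added and read 3 min for agonist activity, followed by capsaicin at EC20 final and 2 min further read for enhancement.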
D2 potentiator: potentiates the human D2 dopamine receptor allosterically | 0.23% of 360,000 active | P14416 | potentiation, % (concentration not given with the values) | DiscoveRx D2 beta-arrestin cells, luminescence, 90 min; 100% = 57 uM dopamine signal; active = potentiation of 50% or more; inconclusive = 30% to 50%; inactive = 30% or less;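 note: compound concentration not given in the record; tested on top of an EC20 dose of dopamine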
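PathHunter beta-arrestin assay in DiscoveRx D2 cells. Compounds were added with an EC20 of dopamine (50 nM final) for 90 min at 37 deg C. Luminescence was read 1 h after detection reagent, with 57 uM dopamine as the EC100 control.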
TRPML1 agonist: agonists of human TRPML1 channel. Q9GZU1. TRPML1-expressing cells, Ca2+ dye fluorescence, FDSS; host cell line not named in the record; reference of the full effect not given here. activation, % (test concentration not listed). 0.12% of 410,000 active; in the data active = activation above about 50%; inconclusive = about 30% to 50%; inactive = below about 30%; note: 0% is about no effect; the text of the record puts the active cut at 80%
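Tet-induced TRPML1-DL cells, 1,500 per well, cultured overnight, were loaded with a no-wash Ca2+ dye for 45–90 min. Calcium fluorescence was recorded on the FDSS for 110 s after compound addition, before the EC80 agonist (4 uM 54-4) was added.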
* marks the source's active call; other numbers are inactive results; ? = inconclusive; / = no result given.

Abbreviations – A = TRPML1 inh; B = Six1-Eya2 inh; C = CtBP-E1A inh; D = TRPV1 PAM; E = D2 potentiator; F = TRPML1 agonist
CC(O)[C@@H](NC(=O)C1CCC(CNC(=O)[C@H](Cc2ccccc2)NC(=O)OC(C)(C)C)CC1)C(=O)O (some centres not stated)
  A: 3; B: 9; C: 16; D: 21; E: -3; F: 1.3
COc1ccc(NC(=O)C2CCCO2)cc1 (configuration not stated)
  A: 5; B: 0; C: 42; D: 27; E: 6; F: -0.7
Cc1nc2ccccn2c1C(=O)NNC(=O)Nc1ccccc1
  A: 1; B: -7; C: -15; D: -3; E: -28; F: -0.8
O=C(NNC(=O)C1CCN(S(=O)(=O)c2cccc(Cl)c2)CC1)C1CC1
  A: 0; B: 4; C: 2; D: -4; E: -6; F: -0.1
N/C(Cc1ccc(Cl)cc1)=N\OC(=O)c1ccccc1
  A: 18; B: 12; C: 3; D: -2; E: 68*; F: 0.5
OC1CCCN(Cc2cccc3ccccc23)C1 (configuration not stated)
  A: 5; B: 0; C: 4; D: -5; E: 1; F: -0.4
COc1ccc(CN(C(=O)Cc2cccs2)C(C(=O)NC2CCCC2)c2ccncc2)cc1 (configuration not stated)
  A: 0; B: -1; C: 22; D: -7; E: -15; F: 3.6
CCn1nc(NC(=O)c2ccccc2)c2cc3cccc(C)c3nc21
  A: ?; B: 71; C: 58; D: /; E: -4; F: 2.2
CCCCOc1ccc(C(=O)NCC(=O)OCC(=O)c2c(N)n(C)c(=O)n(C)c2=O)cc1
  A: 10; B: -19; C: -4; D: /; E: -2; F: -0.4
O=S(=O)(Nc1cc(S(=O)(=O)N2CCOCC2)ccc1N1CCOCC1)c1ccc2c(c1)OCCO2
  A: 27; B: -5; C: /; D: 24; E: 0; F: 1.3
CCOC(=O)N1CCC(NC(=O)C2CCCN(C(=O)c3cc4sccc4n3C)C2)CC1 (configuration not stated)
  A: 8; B: 4; C: -8; D: 0; E: -5; F: 0.0
CCN1CCN(c2nc(C)c3c(n2)CC(C)CC3=O)CC1 (configuration not stated)
  A: ?; B: 3; C: -1; D: 0; E: -15; F: 0.9
O=C(Cn1nnc2ccccc21)Nc1ccccc1[N+](=O)[O-]
  A: -10; B: -2; C: -3; D: 4; E: -26; F: -0.3
CCCCn1c(N)c(N(CCOC)C(=O)CSc2nnc(C)n2-c2ccc(OC)cc2)c(=O)[nH]c1=O
  A: 12; B: 1; C: -1; D: -7; E: -18; F: -1.0
N#Cc1cc([N+](=O)[O-])ccc1NCCc1ccccn1
  A: 14; B: -7; C: -8; D: 4; E: 5; F: -0.3
Brc1ccc(-c2nc(-c3ccncc3)no2)cc1
  A: /; B: -14; C: 19; D: 30; E: -8; F: /
O=C(NCc1ccccc1Cl)C1CCN(S(=O)(=O)N2CCOCC2)CC1
  A: 1; B: 3; C: /; D: -2; E: -4; F: 0.0
Cc1[nH]c2ccccc2c1C(=O)C(=O)NCc1nnnn1-c1cccc(F)c1
  A: -12; B: -10; C: 13; D: /; E: 4; F: -0.5
Cc1ccccc1C(=O)Nc1ccccc1C(=O)NCc1ccccc1
  A: -13; B: 3; C: 12; D: 2; E: 0; F: 3.1
CCn1cc(C(=O)N2CCN(c3ccccn3)CC2)c(=O)c2cc(S(=O)(=O)N(C)C3CCCCC3)ccc21
  A: 11; B: 2; C: -8; D: 3; E: -3; F: 0.7
S=c1nc[nH]c2c1ncn2-c1ccc(Cl)cc1
  A: -7; B: -12; C: -5; D: /; E: -36; F: 0.0
COCCN(CC(=O)NC1CCCCC1)C(=O)c1csnn1
  A: 22; B: 2; C: 0; D: 16; E: -1; F: 0.2
Cn1nnc2cc(NC(=O)Nc3cccc(C(F)(F)F)c3)ccc21
  A: -11; B: 2; C: 2; D: 13; E: -15; F: 0.0
O=C(NNS(=O)(=O)c1ccc(C(=O)NC2CCCC2)cc1)c1ccncc1
  A: -8; B: 7; C: -2; D: -4; E: -1; F: 0.6
O=C(Nc1ccc(Cl)cc1)N1CCOC12CCCCC2
  A: 18; B: 3; C: 4; D: 1; E: -2; F: 0.1
COc1c(F)c(F)c(C(=O)Nc2ccc(NC(=O)Cc3ccccc3)cc2)c(F)c1F
  A: 5; B: 6; C: /; D: -4; E: -5; F: -0.4
Cc1oc(-c2ccc(Cl)cc2)nc1CN1CCC(C(=O)NCc2cccs2)CC1
  A: 25; B: -3; C: 2; D: 3; E: -36; F: 1.9
Cc1occc1C(=O)NNC(=O)C1CCCC1
  A: 2; B: -1; C: -4; D: -13; E: 2; F: 1.0
Cc1ccc(-c2ccc(S(=O)(=O)NCC3CCCO3)cc2)cc1 (configuration not stated)
  A: -18; B: 2; C: /; D: -7; E: -6; F: 2.0
Cc1cccc(NC2CCCCC2NS(=O)(=O)c2ccccc2)c1 (configuration not stated)
  A: -7; B: -10; C: -5; D: -12; E: -10; F: 1.0
NC(=O)c1ccc(SCC(=O)NC2CCCCC2)c([N+](=O)[O-])c1
  A: -8; B: 5; C: -24; D: -5; E: -3; F: -0.2
CCN(CC)CCNC(=O)c1ccc(NC(=O)Cc2ccsc2)cc1
  A: -20; B: -1; C: 3; D: -7; E: -1; F: 0.3
C=CCN(CC=C)Cc1nc(N)nc(Nc2ccccc2C)n1
  A: 8; B: 6; C: -2; D: -2; E: -8; F: 1.5
Cc1ccc(S(=O)(=O)N2CCC(C(=O)OC(C)C(=O)N3CCOCC3)CC2)cc1 (configuration not stated)
  A: -1; B: 3; C: 2; D: -19; E: -28; F: -0.8
O=C(N=C1SC2CS(=O)(=O)CC2N1c1ccccc1Cl)C1CCCO1 (configuration not stated)
  A: 15; B: 13; C: 5; D: -8; E: 0; F: 1.1
CC(=O)NC(=S)Nc1ccc(N2CCOCC2)c(S(=O)(=O)Nc2cc(Cl)ccc2Cl)c1
  A: -2; B: -2; C: 0; D: 3; E: -3; F: -0.7
O=C(CN1C(=O)NC2(CCCCC2)C1=O)Nc1ccc(N2CCOCC2)cc1
  A: 4; B: 4; C: -14; D: -10; E: -7; F: -0.1
Cc1ccccc1-n1c(=O)cc(N2CCc3ccccc32)[nH]c1=O
  A: 17; B: -19; C: -13; D: ?; E: -3; F: -0.7
CC(=O)Nc1cccc(C(=O)N/N=C/c2ccc(C)o2)c1
  A: -15; B: -1; C: -1; D: -2; E: -4; F: 0.3
CCCNC(=O)C1(C)CCCN(Cc2ccc(C(F)(F)F)cc2)C1 (configuration not stated)
  A: /; B: -4; C: 7; D: /; E: -4; F: -1.0
N#Cc1c2ccc(O)cc2n2ccccc12
  A: 1; B: ?; C: ?; D: -2; E: 12; F: 20
CC(C)CN1CCN(Cc2cc3ccccc3[nH]2)CC1CCO (configuration not stated)
  A: 1; B: -2; C: -4; D: -8; E: -9; F: 4.0
CC(C)(C)c1ccc(C(=O)C=[N+]=[N-])cc1
  A: -3; B: -4; C: -1; D: -5; E: -16; F: 0.7
COc1ccc(CNC(=O)COC(=O)Cc2ccsc2)cc1
  A: 20; B: 0; C: 8; D: 4; E: -3; F: -0.5
CC(=O)NCc1nc2ccccc2n1C(C)C
  A: -11; B: -1; C: -3; D: 25; E: -2; F: 0.0
CCN(CC(=O)NCc1ccc(Cl)cc1)C(=O)CCc1ccccc1O
  A: -8; B: 1; C: -10; D: 0; E: -7; F: -0.1
CSc1ccc(C(=O)C2CCCN(C(=O)c3csc(C(C)=O)c3)C2)cc1 (configuration not stated)
  A: 19; B: -1; C: 3; D: -10; E: -12; F: -0.3
N/C(=N/O)c1ccccc1N1CCC(Cc2ccccc2)CC1
  A: 2; B: -8; C: /; D: 11; E: -1; F: -1.2
C=CCOC(=O)C1=C(C)NC(SCC(=O)Nc2ccc(C)c(Cl)c2)=C(C#N)C1c1ccco1 (configuration not stated)
  A: -14; B: 0; C: 0; D: 5; E: -3; F: -0.3
COc1cc(C(=O)OCCCN2CCOCC2)ccc1O
  A: 18; B: 5; C: 0; D: 0; E: -11; F: 0.0
COc1cc(-c2[nH]nc3c2C(c2ccoc2)C(C#N)=C(N)O3)cc(OC)c1OC (configuration not stated)
  A: 13; B: -1; C: 4; D: 0; E: -12; F: -1.8
COc1ccccc1CN(Cc1cc2cc(C)ccc2[nH]c1=O)Cc1nnnn1Cc1ccco1
  A: 60; B: -14; C: -14; D: 6; E: -2; F: 2.4
Cc1cc(C)n2nc(S(=O)(=O)Nc3c(Cl)cccc3Cl)nc2n1
  A: -1; B: 2; C: 9; D: 14; E: -5; F: -0.5
Cc1ccc(OCCCC(=O)Nc2ccc(S(=O)(=O)Nc3ccccn3)cc2)cc1
  A: -2; B: -2; C: 8; D: 5; E: 2; F: -0.4
O=C(CN1CCN(Cc2ccc(Cl)cc2)C1=O)NCCCN1CCOCC1
  A: 4; B: -2; C: 3; D: 1; E: 0; F: -0.5
COc1ccccc1Nc1nc2nonc2[nH]c1=O
  A: -19; B: 2; C: 1; D: ?; E: -2; F: 0.3
CN(C)c1ccc(/C=C2\C(=N)N3N=C(CC(=O)N4CCCCC4)SC3=NC2=O)cc1
  A: 9; B: -7; C: -10; D: 0; E: -5; F: 26
O=C(Cn1cnc2cc([N+](=O)[O-])ccc2c1=O)NCc1ccc(Cl)cc1
  A: -8; B: ?; C: ?; D: -1; E: 18; F: 1.6
O=C(COC(=O)COc1ccc(Cl)cc1Cl)Nc1cccnc1Cl
  A: -4; B: 1; C: -8; D: 14; E: -7; F: -0.8
CC(C)c1onc(C(=O)N2CCN(c3ccccc3)CC2)c1[N+](=O)[O-]
  A: /; B: 3; C: 0; D: -9; E: 5; F: /

Other records.
Abbreviations – A = TRPML1 inh; B = Six1-Eya2 inh; C = CtBP-E1A inh; D = TRPV1 PAM; E = D2 potentiator; F = TRPML1 agonist
O=C(Cc1cccc(NC(=O)C2CCCN(C(=O)CCc3ccccc3)C2)c1)Nc1ccc(C(=O)N2CCOCC2)cc1 (configuration not stated)
  A: -21; B: 3; C: 2; D: /; E: -6; F: 1.2
COc1ccc(NC(=O)CSc2nnc(-c3ccncc3)n2CC2CCCO2)c(OC)c1 (configuration not stated)
  A: 4; B: 3; C: 0; D: 18; E: -9; F: 0.0
COc1ccc(OC)c(S(=O)(=O)N2CCN(c3ccc(F)cc3)CC2)c1
  A: -10; B: 10; C: /; D: -2; E: -24; F: 1.1
CN(Cc1ccccc1)S(=O)(=O)c1ccc(NS(=O)(=O)Cc2ccccc2)cc1
  A: -2; B: -1; C: 4; D: 7; E: 5; F: 0.1

4 entries from above, field by field:
O=C(Cc1cccc(NC(=O)C2CCCN(C(=O)CCc3ccccc3)C2)c1)Nc1ccc(C(=O)N2CCOCC2)cc1 (configuration not stated)
  TRPML1 inh: -21	Six1-Eya2 inh: 3	CtBP-E1A inh: 2	TRPV1 PAM: /	D2 potentiator: -6	TRPML1 agonist: 1.2

COc1ccc(NC(=O)CSc2nnc(-c3ccncc3)n2CC2CCCO2)c(OC)c1 (configuration not stated)
  TRPML1 inh: 4	Six1-Eya2 inh: 3	CtBP-E1A inh: 0	TRPV1 PAM: 18	D2 potentiator: -9	TRPML1 agonist: 0.0

COc1ccc(OC)c(S(=O)(=O)N2CCN(c3ccc(F)cc3)CC2)c1
  TRPML1 inh: -10	Six1-Eya2 inh: 10	CtBP-E1A inh: /	TRPV1 PAM: -2	D2 potentiator: -24	TRPML1 agonist: 1.1

CN(Cc1ccccc1)S(=O)(=O)c1ccc(NS(=O)(=O)Cc2ccccc2)cc1
  TRPML1 inh: -2	Six1-Eya2 inh: -1	CtBP-E1A inh: 4	TRPV1 PAM: 7	D2 potentiator: 5	TRPML1 agonist: 0.1
